RN4220 kill: kills Staphylococcus aureus RN4220 | inhibition, % (test concentration not listed) | AID 1259311 | S. aureus RN4220 growth, OD600, 16 h | 330,000 compounds, 0.33% hits;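 active = z-score of -3 or lower and OD600 up to 0.18 on both plates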;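 also: plate controls were untreated cells for no effect and reference antibiotic for full effect; stock transfer was 100 nL into about 80 µL; one replicate is shown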
Mtb hypoxia inh: reduces hypoxia-regulated biosensor signal in M. tuberculosis; AID 1159583; fluorescence inhibition, % (test concentration not listed); 300,000 compounds, 0.1% hits; M. tuberculosis hypoxia-regulated fluorescent reporter, fluorescence;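 active = 35 to 45% if threefold the growth effect, above 45% if 1.5-fold the growth effect; inactive = the rest, general growth blockers included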;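 also: wells of about 50 µL received 100 nL stock; 0% = vehicle wells and 100% = reference inhibitor wells; whole bacteria with a GFP reporter of the hypoxia response; strong numbers were not always called active; many hits fall short of the cut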
BJeLR lethal: BJeLR cell viability loss | BJeLR (HRASV12) viability, CellTiter-Glo ATP luminescence, 48 h; reference of the scale not given here | inhibition, % (no concentration beside the values) | 300,000 compounds, 0.17% hits | AID 1554;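 active = replicate mean above 50%; inconclusive = above 50% but judged a plate artefact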;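 also: 50 nL library stock added to about 25 µL; numbers are from one replicate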
PrP 5UTR inh: inhibition of PrP 5' UTR reporter expression. cell-based PrP 5' UTR mRNA reporter, plate reader. inhibition, % (no concentration beside the values). 340,000 compounds, 0.35% hits;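 active = every replicate at 50% or more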;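 also: 0 = median of the neutral control wells; tested in H4 reporter cells; numbers are from one replicate; inactives centre near -14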
Sa ugtP lethal: kills S. aureus RN4220 lacking UgtP. 330,000 compounds, 0.54% hits. growth inhibition, % (test concentration not listed). AID 1259309. S. aureus RN4220 ugtP deletion, OD600 growth, 16 h; some inactives read as strong as hits;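 active = z-score under -3 and OD600 up to 0.15 on both plates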;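 also: plate controls were untreated wells for no effect and antibiotic for full effect; wells of about 80 µL received 100 nL stock; the first replicate is given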
Autofluor counter: flagged as autofluorescent in microsphere protease counterscreen. compound autofluorescence counterscreen, microsphere flow cytometry; stronger effect = higher value. fluorescence intensity (no concentration beside the values). 360,000 compounds, 3.1% hits. AID 624483;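 active = at least 3 SD above the mean of all compounds, about 16000 in these data; inconclusive = too few beads counted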;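 also: 100 nL of 1 mM stock went into each well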
Mtb hypoxia inh growth: recorded beside Mtb hypoxia inh, whose call it bears; growth inhibition, %; measured here: M. tuberculosis growth (absorbance);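 0% = vehicle and 100% = reference antibiotic; read after six days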
The depositor's hits bear a star; ? = inconclusive; . = not tested or not shown. Not a hit list. About 4% of those tested had a hit in this group.

SMILES	RN4220 kill	Mtb hypoxia inh	Mtb hypoxia inh growth	BJeLR lethal	PrP 5UTR inh	Sa ugtP lethal	Autofluor counter
CN1CCN(CCCNC(=O)C2CCN(c3nnc(-n4cccc4)s3)CC2)CC1	-5.4	0	-1	-11	-8	6	2842
CC1=C(C#N)C(=O)NC(=O)/C1=C/c1ccc(-c2ccc(S(N)(=O)=O)cc2)o1	5.1	-1	8	-13	-47	-9	2596
Cc1ccccc1C(=O)Nc1ccnn1C1CCN(Cc2cnn(C(C)C)c2)CC1	1.0	1	3	6	-15	5	6646
C1=C(c2cc3ccccc3cn2)CCCC1	17	8	3	.	-66	31	3865
COc1ccc2cc3cc(C(=O)Nc4ccc5c(c4)OCCO5)oc3nc2c1	1.3	.	.	3	-16	2	4101
COc1cc(-c2cc(C(=O)Nc3nc4ccccc4s3)c3ccccc3n2)cc(OC)c1OC	-7.9	-11	8	6	-34	0	2858
CN1OCC(S(=O)(=O)c2ccccc2)C1c1ccccc1 (configuration not stated)	5.3	6	1	2	-18	5	3258
CN(CC(Cc1ccccc1)N(CC(Cc1ccccc1)N(CC1(c2ccccc2)CC1)N=O)N=O)N=O (configuration not stated)	12	7	12	.	.	21	.
Cc1ccccc1-c1nnn(CC(=O)N2CCN(C(=O)c3ccco3)CC2)n1	-2.1	2	7	7	-5	13	6286
O=S1(=O)NC(c2ccccc2)CC(c2ccc(C(F)(F)F)cc2)O1 (configuration not stated)	3.3	1	6	.	.	-1	.
C(=Nc1ccccc1)c1ccc[nH]1	3.4	3	2	.	-20	-2	3989
COc1ccc(NC(=O)CCNS(=O)(=O)c2ccc3[nH]c(=O)oc3c2)cc1Cl	0.4	2	-1	-5	-1	0	5581
Cc1c(C(=O)NCc2ccccc2F)oc2ccccc12	-0.1	-3	13	7	-16	-8	6288
Cc1cccn2c(=O)c(/C=C(\C#N)C(=O)NCc3ccco3)c(N3CCCC(C)C3)nc12 (configuration not stated)	14	11	6	-21	-11	-15	2423
CCCCn1c(N)c(N(CC(C)C)C(=O)C2CC(=O)N(Cc3ccco3)C2)c(=O)[nH]c1=O (configuration not stated)	4.9	7	2	5	-27	7	4643
COc1ccc(NC(=O)CC(C)=NNC(=O)C(=O)NC(C)C)c(OC)c1	-1.4	-4	-7	.	.	-3	.
Cc1cc(C)c(C)c(S(=O)(=O)NCC(=O)N2CCCC2)c1C	5.7	7	6	2	-18	4	20412*
Cc1sc(NC(=O)c2ccccc2)c(C(=O)c2ccccc2)c1C	-1.9	10	2	2	-43	1	2268
CCN(CC)S(=O)(=O)c1cc(NC(=O)CN2C(=O)NC3(CCCc4ccccc43)C2=O)ccc1C (configuration not stated)	-4.1	5	5	0	-15	-6	2054
O=C(CN1C(=O)S/C(=C\c2ccccc2F)C1=O)NC1CCS(=O)(=O)C1 (configuration not stated)	3.3	-1	-5	-2	11	3	4767
CCN1C(=NCc2ccccc2)NC(c2ccccc2)C(C(=O)OC)C1C (configuration not stated)	7.1	5	3	.	.	8	.
CSc1ccccc1C(=O)NCCS(=O)(=O)N1CCN(c2ccc(F)cc2)CC1	-7.7	7	9	-3	-9	-2	?
Cc1ccc([N+](=O)[O-])cc1NCC(=O)NN	4.6	5	-1	-3	-15	0	3356
O=C(NCc1cccnc1)C1CCN(S(=O)(=O)c2cccc(C(F)(F)F)c2)CC1	3.5	7	4	.	-9	6	3841
O=C(COC(=O)c1cc(Cl)nc(Cl)c1)NCc1ccc2c(c1)OCO2	7.6	-1	-8	.	-24	12	3232
COc1ccc(CCNC(=O)c2ccc3c(c2)NC(=O)C(C(C)C)N3)cc1OC (configuration not stated)	5.9	-3	4	-10	-25	9	5075
N/N=C/C(=N\Nc1ccc(Cl)cc1)C(=O)c1ccncc1	.	.	.	6	-16	.	4557
CC(=O)NC(CCS(C)(=O)=O)C(=O)Nc1ccc(C)c(F)c1 (configuration not stated)	6.4	.	.	4	-21	-1	2145
O=C(COc1ccc(Cl)cc1)NN=C1CCCCCCC1	.	.	.	-2	-14	.	6405
CC(C)NC(=O)CSc1ccccc1C(=O)N1CCN(S(=O)(=O)/C=C/c2ccccc2)CC1	4.6	6	4	.	-16	8	3871
CCc1ccc(N2CSC3=C(C#N)C(c4cccs4)CC(=O)N3C2)cc1 (configuration not stated)	4.3	8	14	-1	-8	0	25679*
CCCN(CC(=O)Nc1ccccc1OC)C(=O)CSc1ccc(Br)cc1C	8.7	1	-6	.	-9	9	3076
CCCC(C(=O)NC1CCCC1)N(Cc1ccc(OC)cc1)C(=O)c1snc(C(N)=O)c1N (configuration not stated)	.	.	.	4	-20	.	3614
CCOC(=O)c1cnc(COc2ccccc2Cl)[nH]c1=O	4.1	-1	5	5	-29	2	5965
CC[C@]12c3[nH]c4cc(CCC(=O)N(C)C)ccc4c3CCN1C(=O)[C@@H](CC(=O)NCCC1=CCCCC1)C[C@@H]2C(=O)N1CCN(C(=O)C2CC2)CC1	0.0	-13	4	.	-16	5	3587
CCCC[C@@H]1CNC(=O)C(=O)N1CC(C)(C)C	.	.	.	3	-19	.	4116
CC1(C)CC(=O)C2=C(C1)N1C(=C(C#N)C2c2ccccc2Cl)N=C(N)c2ccccc21 (configuration not stated)	-4.3	.	.	-12	0	4	5949
CC(C)c1nnc(NC(=O)CCC(=O)NCc2ccc(F)cc2)s1	2.5	-11	-5	-1	0	3	5820
N#Cc1c(N)nc2c(c1-c1ccccc1)CCC2	2.7	-4	14	3	0	1	2932
O=C(Nc1ccc(-c2cc3ccccc3oc2=O)c(Cl)c1)c1cccnc1	4.9	6	8	-3	-19	1	8506
O=C(COC(=O)c1cccc2ccccc12)NCC1CCCO1 (configuration not stated)	2.0	3	6	-15	-19	0	3157
O=C(C[C@H]1C[C@H](C(=O)N2CCCCC2)[C@@]2(CCc3ccccc3)c3[nH]c4cc(-c5ccco5)ccc4c3CCN2C1=O)NCc1ccco1	-7.4	-14	8	.	-5	-13	4386
O=C(O)C1C2C=CC(C2)C1C(=O)OC1CC2CCC1C2 (configuration not stated)	4.3	5	0	11	-11	-2	8868
COC(=O)CSc1nc2ncc(Cl)cc2[nH]1	4.1	.	.	-2	-8	0	2414
CC1(C)c2ccccc2N2CCC(=O)NC21C=Cc1ccco1 (configuration not stated)	-1.4	0	-1	.	.	-7	.
Cc1cccc(Nc2nnc(SCc3cc(=O)n4cc(C)ccc4n3)s2)c1	4.5	7	-2	-6	-16	26	2076
Cc1ccc(NCN2C(=O)C3CC=C(Cl)CC3C2=O)cc1 (configuration not stated)	5.4	.	.	-7	-68	8	2906
COc1cc(OC)c(C=CC(=O)c2ccccc2O)c(OC)c1	-4.2	3	2	.	-30	8	4149
CC(=O)C12C3C4C(C5C1C3C5(Br)C41OCCO1)C21OCCO1 (configuration not stated)	5.7	14	1	-5	-27	15	8642
CN(C)C(=O)c1cc(C(=O)c2ccc(F)cc2Cl)c[nH]1	5.0	-8	-2	-1	-11	5	2942

Complete entries as entered above. Order of screens: RN4220 kill, Mtb hypoxia inh, Mtb hypoxia inh growth, BJeLR lethal, PrP 5UTR inh, Sa ugtP lethal, Autofluor counter
O=C(COC(=O)c1cccc2ccccc12)NCC1CCCO1 (configuration not stated) is listed as 2.0, 3, 6, -15, -19, 0, 3157
CC1(C)c2ccccc2N2CCC(=O)NC21C=Cc1ccco1 (configuration not stated) is listed as -1.4, 0, -1, ., ., -7, .

Next part:
SMILES	RN4220 kill	Mtb hypoxia inh	Mtb hypoxia inh growth	BJeLR lethal	PrP 5UTR inh	Sa ugtP lethal	Autofluor counter
CC(NC(=O)C(=O)N1CCCCC1)C(c1cccs1)N1CCN(c2ccc(F)cc2)CC1 (configuration not stated)	3.3	5	3	15	-19	3	6007
CC1=NN(c2ccc(S(=O)(=O)O)cc2Cl)C(=O)C1	7.4	3	0	4	-23	11	4820
NC(=NOC(=O)Cc1ccccc1[N+](=O)[O-])c1ccccn1	13	8	14	.	.	5	.
Cc1ccc(-n2c(SCc3ccc(C(=O)O)cc3)nnc2-c2ccncc2)cc1	1.3	8	-13	5	-4	8	4080
CCOC(=O)C1CCN(C(=S)Nc2ccc(Cl)cc2C)CC1	1.2	7	0	-4	-11	6	2252
CCCOc1ccc2[nH]cc(C(=O)O)c(=O)c2c1	5.6	.	.	19	3	7	4298
N#CNc1nc(O)cc(=O)[nH]1	2.9	12	4	-3	-23	5	4529
O=C(Nc1cccc(S(=O)(=O)NCc2ccco2)c1)c1cc(-c2ccccc2)nc2ccccc12	-4.0	2	-2	1	6	-2	2502
Cc1nn2c(CN(C(=O)c3ccco3)c3ccccc3)nnc2c2ccccc12	2.7	.	.	.	-5	-6	2458
Cc1cc(C)c2c(=O)[nH]c(SCC(=O)Nc3ccc(N(C)C)cc3)nc2n1	4.7	10	7	5	-26	6	10713
CCc1ccc(C2=C/C(=C/c3cccnc3)C(=O)O2)cc1	3.0	11	6	6	-10	6	2495
CCOc1ccccc1CN1CCN(CC2=Cc3cc(OC)ccc3OC2)CC1CCO (configuration not stated)	1.9	6	2	2	-7	1	6205
Cc1cccc(N2CCN(Cc3nc(CC4CC4)no3)CC2)n1	2.6	-7	4	5	-21	1	3665
Cc1ccnn1CC(=O)N/N=C/c1ccco1	.	.	.	-8	-36	.	8578
CCc1ccccc1NC(=O)CCc1nc(-c2cccs2)no1	3.1	8	11	5	-18	6	2513
O=C(COC(=O)c1ccc2ccccc2n1)c1ccc(F)cc1	4.4	1	9	-7	-17	10	4170
Cc1ccsc1/C=N/NC(=O)CC(=O)NCC(C)C	.	.	.	5	-27	.	4306
CC(C)Oc1ccc(CSC(=N)N)cc1	-0.5	-7	0	5	-8	-3	5484
O=C(Cn1ncc(Cl)c(Cl)c1=O)N1CCc2ccccc21	1.5	-7	11	-8	-4	-6	4688
Cc1nnc(NC(=O)c2ccc(Br)cc2)s1	-5.6	-3	4	-6	-3	-10	6147
Cc1ccnc(NC(=O)c2ccc(S(=O)(=O)NCc3ccco3)cc2)c1	6.0	9	-4	6	-27	-4	.
CC(C)(C)c1ccccc1NC(=S)NC1CCCC1	0.9	-6	-2	-8	-15	-3	?
C[C@@H](CN=[N+]=[N-])CN1CC[C@H](NC(=O)OCc2ccccc2)CCC1=O	.	.	.	4	-33	.	4014
COc1ccc(CNC(=O)c2cccc(NC(=O)CC3SC(N4CCCCC4)=NC3=O)c2)cc1 (configuration not stated)	5.2	5	2	.	-10	12	3840
COC(=O)c1ccc(C2c3[nH]c4ccccc4c3C[C@H]3C(=O)N(C4CCN(Cc5ccccc5)CC4)CC(=O)N23)cc1 (some centres not stated)	-0.6	1	7	1	3	-4	4331
CC(=O)c1ccc(N(CC(=O)NC2CCCC2)C(=O)CCC(=O)Nc2cc(C)on2)cc1	2.2	5	3	-8	-2	8	4473
CCOc1ccc(CC(=O)NC2CCN(Cc3ccccc3)CC2)cc1	1.4	-1	5	-10	-32	4	3944
CCOC(=O)c1ccccc1N/C=C/C(=O)c1cccs1	11	0	6	4	2	-4	2370
Cn1ccnc1SCC(=O)Nc1ccc(Br)cc1C(F)(F)F	-0.6	0	1	-3	-10	-1	5422
COc1ccc2nc(/N=C/c3cccc(OC)c3O)sc2c1	.	.	.	-1	-21	.	3429

Exported with values under each structure: 3 of the compounds above
The line under a structure holds: RN4220 kill, Mtb hypoxia inh, Mtb hypoxia inh growth, BJeLR lethal, PrP 5UTR inh, Sa ugtP lethal, Autofluor counter
CCOc1ccc(CC(=O)NC2CCN(Cc3ccccc3)CC2)cc1
  1.4, -1, 5, -10, -32, 4, 3944
CCOC(=O)c1ccccc1N/C=C/C(=O)c1cccs1
  11, 0, 6, 4, 2, -4, 2370
Cn1ccnc1SCC(=O)Nc1ccc(Br)cc1C(F)(F)F
  -0.6, 0, 1, -3, -10, -1, 5422

(more compounds)
SMILES	RN4220 kill	Mtb hypoxia inh	Mtb hypoxia inh growth	BJeLR lethal	PrP 5UTR inh	Sa ugtP lethal	Autofluor counter
COC(=O)c1cc2ccsc2n1Cc1nc(-c2ccc(OC)cc2)oc1C	2.1	-4	4	1	-30	64	12147
COc1ccccc1NC(=O)NCc1nc(-c2ccc(C(F)(F)F)cc2)no1	1.6	12	17	-12	-18	-5	.
C=CCn1c(=O)c2ccc(C(=O)NCc3ccccc3)cc2n(Cc2ccc(Cl)cc2)c1=O	2.8	-1	1	1	-11	3	2377
CSc1ncc(C(=O)Nc2cccc(Cl)c2)c(C)n1	4.1	9	8	-1	-14	10	3798
